Compound activity as filed in PubChem.
PD-1 reverse act = activators reversing PD-1 mediated T-cell inhibition. primary human CD4 T cells, PD-L1 beads, CellTiter-Glo 96 h. activation, % (concentration not given with the values). 29,000 tested, under 10 active. AID 2316;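 active = replicate mean of 50% or more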;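 note: 0% = median vehicle wells and 100% = positive control; 100 nL library stock added to about 50 µL; numbers are from one replicate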
MITF inhib = inhibitors of MITF | TRPM1 promoter luciferase, luminescence, 24 h | inhibition, % (test concentration not listed) | 37,000 tested, 0.28% active;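 active = most replicates at 85% or more, or half of them and the mean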;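 note: human melanocyte line stably carrying TRPM1 promoter luciferase reporter; 0% = vehicle wells and 100% = a positive control; the first replicate is given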
YB-1 expression = YB-1 expression inhibition; U2OS, qRT-PCR YB-1 vs CDIP delta delta Cp, 16 h; active compounds read high; zero = DMSO, each unit about twofold; delta delta Cp (YB-1 minus CDIP) (no concentration beside the values); 30,000 tested, 0.37% active; AID 434959;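 active = delta delta Cp rounded down to an integer at or above 3, about 3 SD of DMSO wells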;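 note: higher means less YB-1 transcript or more CDIP transcript relative to DMSO; stock transfer was 100 nL into about 100 µL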
Shh pathway inh = blocks Sonic Hedgehog signaling; Shh-LIGHT2 Gli-luciferase reporter, 30 h; inhibition, % (no concentration beside the values); 22,000 tested, 2.1% active;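 active = replicate mean of 65% or more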;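 note: pathway switched on by Shh-conditioned medium diluted 1 in 25 in low serum; 100 nL library stock added to about 40 µL; 0% = median of neutral wells and 100% = positive control level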
* = called active by the depositor; nt = no result given; & = joins results of further samples. Only part of the results is shown; rates above refer to the full screens.

SMILES | PD-1 reverse act | MITF inhib | YB-1 expression | Shh pathway inh
Cc1ccc(S(=O)(=O)Nc2ccc3c(c2)CC(=O)N([C@H](C)CO)C[C@@H](C)[C@H](CN(C)C(=O)Nc2ccccc2)O3)cc1 | 1.2 | -4.5 | -0.121 | -19.0
CCn1c(SCC(=O)Nc2ccc(Br)cc2C)nnc1-c1ccccc1F | -0.3 | 12.4 | nt | nt
Cc1ccc(-c2cc(C(=O)Nc3cc(C)nn3-c3ccccc3)no2)cc1 | 0.7 | -8.3 | nt | nt
COc1ccc(S(=O)(=O)N(C)C[C@H]2Oc3ccc(NS(=O)(=O)c4cccs4)cc3C(=O)N([C@@H](C)CO)C[C@@H]2C)cc1 | 2.4 | -4.5 | -0.143 | 10.3
Cc1noc(C)c1NC(=O)Nc1cccc2c1O[C@H](CN(C)Cc1ccc(Oc3ccccc3)cc1)[C@H](C)CN([C@@H](C)CO)C2=O | 0.2 | 1.1 | -0.113 | -16.8
Cc1noc(C)c1NC(=O)N(C)C[C@H]1Oc2ccc(NS(=O)(=O)c3ccc(Cl)cc3)cc2CC(=O)N([C@@H](C)CO)C[C@H]1C | 2.9 | -1.9 | 0.31 | -22.7
C[C@@H]1CN([C@H](C)CO)C(=O)c2cc(NS(=O)(=O)c3ccccc3)ccc2O[C@H]1CN(C)C(=O)Nc1ccccc1 | 0.1 | 3.7 | -0.0594 | 26.7
Cc1ccc(-c2nnc3c4ccccc4c(C)nn23)cc1S(=O)(=O)NC1CCCCC1 | -1.8 | 7.6 | nt | nt
COc1ccc(-c2nc3nnc(C)n3[nH]2)c(OC)c1 | 0.4 | -1.6 | -0.238 | -1.8
C[C@@H]1CN([C@H](C)CO)C(=O)c2cccc(NS(=O)(=O)c3ccc(F)cc3)c2O[C@@H]1CN(C)Cc1ccc(C(=O)Nc2ccccc2N)cc1 | -2.3 | 6.1 | 0.0601 | nt
C[C@H]1CN([C@@H](C)CO)C(=O)c2cccc(NC(=O)C3CC3)c2O[C@@H]1CN(C)CC1CC1 | 0.8 | -0.5 | 0.0666 | -9.8
CCC1(C)CC(=O)NC1=O (stereo not drawn) | -1.3 | 2.3 | -0.329 | 38.0
COc1ccc(S(=O)(=O)Nc2ccc3c(c2)C(=O)N([C@@H](C)CO)C[C@H](C)[C@@H](CN(C)C(=O)Nc2ccc4c(c2)OCO4)O3)cc1 | 1.7 | -2.4 | 0.372 | -11.8
COc1ccc(NC(=O)Nc2ccc3c(c2)C(=O)N([C@H](C)CO)C[C@H](C)[C@H](CN(C)S(C)(=O)=O)O3)cc1 | 1.6 | 6.4 | -0.169 | -12.6
C[C@@H]1CN([C@H](C)CO)C(=O)c2cc(NS(=O)(=O)c3ccc(Cl)cc3)ccc2O[C@H]1CN(C)C(=O)Nc1ccc(F)cc1 | nt | -8.1 | 0.292 | nt
CCOC(=O)c1ccccc1NC(=O)COc1ccccc1C | 1.4 | -52.0 | nt | nt
CC(=O)Oc1c(I)c(=O)n(C)c2ccccc12 | -11.9 | 47.7 | 0.278 | 22.5
c1ccc(CCc2nn3c(Cn4cnc5ccccc54)nnc3s2)cc1 | -2.4 | 26.3 | nt | nt
C[C@@H]1CN([C@H](C)CO)C(=O)c2cc(N(C)C)ccc2O[C@H]1CN(C)S(=O)(=O)c1ccc(Cl)cc1 | nt | 1.1 | -0.44 | 6.7
C[C@H]1CN([C@@H](C)CO)C(=O)c2cccc(NS(=O)(=O)c3ccc(F)cc3)c2O[C@H]1CN(C)C(=O)Nc1ccccc1 | 0.2 | 5.5 | -0.0902 | -3.5
Cc1noc(C)c1NC(=O)N(C)C[C@H]1Oc2c(NS(=O)(=O)c3ccc(Cl)cc3)cccc2C(=O)N([C@H](C)CO)C[C@H]1C | nt | 6.7 | 0.261 | 21.2
CN(C)c1nc(N)nc(CSc2nc3cc(Cl)ccc3o2)n1 | 1.5 | -44.1 | nt | nt
Cc1noc(C)c1NC(=O)N(C)C[C@@H]1Oc2ccc(NS(=O)(=O)c3cn(C)cn3)cc2CC(=O)N([C@H](C)CO)C[C@H]1C | 0.1 | -16.1 | 0.186 | nt
C[C@@H]1CN([C@H](C)CO)C(=O)Cc2cc(N(C)C)ccc2O[C@H]1CN(C)Cc1ccc(C(=O)O)cc1 | 2.4 | -7.2 | 0.0327 | -9.5
Cc1cc(=O)[nH]c(SCC(=O)Nc2cc([N+](=O)[O-])ccc2C)n1 | 0.7 | -1.0 | nt | nt

More structures follow:
SMILES | PD-1 reverse act | MITF inhib | YB-1 expression | Shh pathway inh
C[C@@H]1CN([C@@H](C)CO)C(=O)Cc2cc(NS(=O)(=O)c3ccccc3)ccc2O[C@@H]1CN(C)Cc1ccc(Cl)c(Cl)c1 | -4.2 | 35.0 | 0.17 | 54.7
O=C(Nc1ccc(Br)cc1)C1CN(S(=O)(=O)c2ccccc2)CCN1S(=O)(=O)c1ccccc1 (stereo not drawn) | -1.7 | 4.0 | nt | nt
C[C@@H]1CN([C@H](C)CO)C(=O)c2cccc(NC(=O)Nc3ccc4c(c3)OCO4)c2O[C@H]1CN(C)C(=O)Nc1ccc(F)cc1 | nt | 7.9 | -0.116 | -8.5
Cc1noc(C)c1NC(=O)Nc1ccc2c(c1)C(=O)N([C@@H](C)CO)C[C@@H](C)[C@@H](CN(C)Cc1ccc3c(c1)OCO3)O2 | nt | 3.9 | -0.0894 | nt
O=C(NC1CCN(C(=O)C2CCC2)CC1)C1CCCCC1 | -0.4 | -12.8 | 0.0852 | -0.8
C[C@H](CO)N1C[C@H](C)[C@@H](CN(C)Cc2ccc(Oc3ccccc3)cc2)Oc2ccc(NC(=O)Nc3ccccc3)cc2C1=O | -1.7 | 1.6 | 0.254 | nt
C[C@@H]1CN([C@H](C)CO)C(=O)c2cccc(NC(=O)NC3CCCCC3)c2O[C@@H]1CN(C)Cc1ccc(C(F)(F)F)cc1 | -0.8 | -5.2 | -0.0921 | -21.5
C[C@@H]1CCCCO[C@H](CN(C)C(=O)Nc2ccc3c(c2)OCO3)[C@@H](C)CN([C@H](C)CO)C(=O)c2cc(NC(=O)C3CCCCC3)ccc2O1 | 1.0 | -11.5 | 0.207 | -13.8
C[C@@H]1CN([C@H](C)CO)C(=O)c2cccc(NC(=O)Nc3ccc(F)cc3)c2O[C@H]1CN(C)S(C)(=O)=O | -0.6 | 5.4 | 0.183 | 39.2
CC(C)NC(=O)Nc1ccc2c(c1)CC(=O)N([C@@H](C)CO)C[C@H](C)[C@H](CN(C)Cc1ccccc1)O2 | -0.3 | -8.2 | 0.19 | -13.6
C[C@@H]1CN([C@@H](C)CO)C(=O)c2cccc(NS(=O)(=O)c3cccs3)c2O[C@@H]1CN(C)C(=O)Nc1ccc(F)cc1 | -1.5 | -8.9 | -0.43 | 3.4
C[C@@H]1CN([C@H](C)CO)C(=O)c2cc(NC(=O)CCCCCC(=O)Nc3ccccc3N)ccc2O[C@H]1CN(C)Cc1ccncc1 | 3.1 | -24.7 | -0.026 | nt
C[C@H](CO)N1C[C@H](C)[C@H](CN(C)Cc2ccc(C(F)(F)F)cc2)Oc2c(NS(=O)(=O)c3ccc(F)cc3)cccc2C1=O | nt | 2.6 | -0.159 | 43.1
CN(c1cccc(NC(=O)c2ccccc2N(C)S(=O)(=O)c2ccccc2)c1)S(C)(=O)=O | 1.2 | -30.1 | nt | nt
CCCN1C[C@H](CSC)C[C@@H]2c3cccc4[nH]cc(c34)C[C@H]21 | nt | 3.5&0.8 | -0.0334&-0.108 | -20.0&20.0
O=C(CN1C(=O)c2cccc3cccc1c23)Nc1ccc(S(=O)(=O)N2CCCCC2)cc1 | -1.3 | 28.8 | nt | nt
C[C@@H]1CCCCO[C@H](CN(C)C(=O)c2ccncc2)[C@@H](C)CN([C@H](C)CO)C(=O)c2cc(NC(=O)CCC(F)(F)F)ccc2O1 | nt | 8.3 | -0.614 | nt
COc1ccc(S(=O)(=O)N(C)C[C@@H]2Oc3ccc(NS(=O)(=O)c4ccc(F)cc4)cc3C(=O)N([C@@H](C)CO)C[C@H]2C)cc1 | -0.9 | -7.2 | 0.293 | nt
C[C@@H]1CN([C@H](C)CO)C(=O)c2cccc(NS(=O)(=O)c3cn(C)cn3)c2O[C@@H]1CN(C)C(=O)Nc1ccc2c(c1)OCO2 | -0.2 | -1.1 | -0.766 | -31.0
